2A StopGo: lowers the luciferase signal of an FMDV 2A StopGo reporter; human cells with a luciferase reporter of 2A StopGo recoding; control for the full effect not named in the record; Potency, µM (series often up to 57.9 µM), without a hit: at the top dose signal change, negative = less light; AID 1159524; actives 1.2% (n = 410,000); active = well fitted falling curve with a large enough effect; inconclusive = small, poorly fitted or top-dose-only effect; inactive = no such curve, though single readings can be large or run the other way; tested in HEK293T cells; also: % is scaled to controls: 0 for no effect and ±100 for the full control effect; nearly all actives have a fitted effect of over 45% in size; luciferase light after 4 h
MARV entry inh: inhibitors of Marburg virus binding or cell entry | Marburg virus pseudotyped entry inhibition, cell reporter; control for the full effect not named in the record; about a third of the inactives were read at about 46 µM | Potency, µM (series often up to 37.8 µM), inactives show at the top dose activity change, negative = inhibition, most hits filed as inhibitors | actives 1.8% (n = 300,000) | AID 540276; active = well fitted inhibition curve with a large enough effect; inconclusive = small, poorly fitted or top-dose-only effect, or effect the other way; inactive = flat fitted curve, though single readings scatter; tested in HEK293 cells; about a fifth of its hits are not listed in these tables; also: % is scaled to controls: 0 for no effect and ±100 for the full control effect; luciferase read-out
SARS PLpro yeast: SARS-CoV PLP inhibition in yeast; actives 0.19% (n = 330,000); Potency, µM (titrated, usually from 32.9 µM), without a hit: top-dose activity, positive = growth rescue; S. cerevisiae expressing SARS-CoV PLpro, growth rescue; control for the full effect not named in the record; also: 0% is about no effect; nearly all actives have a fitted effect of over 55% in size; growth read by luminescence after 48 h
NS1 function inh: influenza NS1 inhibition. actives 0.4% (n = 270,000). Potency, µM (titrated, usually from 46.1 µM), without a hit: top-dose activity, positive = more growth. AID 2326. S. cerevisiae slowed by influenza A NS1, growth recovery by OD600; also: actives are rising curves; nearly all actives have a fitted effect of over 50% in size
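A cell-based growth assay was used: compounds that relieve NS1-induced slow growth of budding yeast raise OD600. Assay medium was yeast nitrogen base with ammonium sulphate and -URA supplement, pH 6.0, with 2% galactose.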
Lassa entry inh: blocks Lassa virus binding to or entry into cells | Potency, µM (doses to about 37.9 µM), for the others: top-dose activity change, negative = inhibition, hits mostly inhibitors | Lassa virus pseudotype entry inhibition, cell reporter; control for the full effect not named in the record | actives 1.2% (n = 300,000); active means well fitted inhibition curve with a large enough effect; inconclusive means small, poorly fitted or top-dose-only effect, or effect the other way; inactive means flat fitted curve, though single readings scatter; tested in HEK293 cells; also: % is scaled to controls: 0 for no effect and ±100 for the full control effect; nearly all actives have a fitted effect of over 50% in size; luciferase read-out
Cruzain Triton: inhibitors of Trypanosoma cruzi cruzain with detergent; actives 0.43% (n = 200,000); purified cruzain, Z-FR-AMC fluorescence, 0.01% Triton; Potency, µM, inactives show max response, negative = inhibition, usual class: inhibitors; AID 1478; P25779; active = well fitted curve in the direction sought with a large enough effect; inconclusive = small, poorly fitted or top-dose-only effect, or another doubt; inactive = no such curve, though single readings can be large; an effect the other way counts as inactive or inconclusive;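 also: plate controls were neutral wells for no effect and buffer without enzyme for full effect; nearly all actives have a fitted effect of over 40% in size; top concentration of the series not given in the record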
Target sequence (P25779 123-467 limits assumed): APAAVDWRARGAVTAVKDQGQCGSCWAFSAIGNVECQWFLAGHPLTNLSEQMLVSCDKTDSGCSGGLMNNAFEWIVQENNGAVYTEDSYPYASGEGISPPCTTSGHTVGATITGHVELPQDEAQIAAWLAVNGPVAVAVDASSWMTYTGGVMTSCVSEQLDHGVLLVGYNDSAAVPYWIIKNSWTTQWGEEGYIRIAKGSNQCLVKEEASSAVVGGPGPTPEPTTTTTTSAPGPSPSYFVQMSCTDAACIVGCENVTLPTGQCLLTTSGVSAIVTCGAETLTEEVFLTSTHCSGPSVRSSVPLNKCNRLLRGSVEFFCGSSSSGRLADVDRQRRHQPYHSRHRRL
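15 min RT preincubation of 1.5 nM cruzain with compound, then 2 uM Z-FR-AMC added; kinetic AMC fluorescence, 60 s delta. Triton X-100 0.01%, pH 5.5.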
Cruzain inh noDet: inhibitors of Trypanosoma cruzi cruzain without detergent. AID 1476. purified cruzain, Z-FR-AMC fluorescence, no detergent. actives 2.3% (n = 200,000). Potency, µM, without a hit: max response, negative = inhibition, actives largely listed as inhibitors; active = well fitted curve in the direction sought with a large enough effect; inconclusive = small, poorly fitted or top-dose-only effect, or another doubt; inactive = no such curve, though single readings can be large; an effect the other way counts as inactive or inconclusive;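 also: plate controls were enzyme without inhibitor for no effect and buffer without enzyme for full effect; nearly all actives have a fitted effect of over 40% in size; top concentration of the series not given in the record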
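Purified cruzain at 1.5 nM, pre-incubated 15 min with compound at room temperature in 100 mM sodium acetate pH 5.5, 5 mM DTT, 0.00005% Triton X-100. Reaction started with 2 uM Z-FR-AMC; AMC fluorescence increase over 60 s gives rate.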
RE007 growth inh: less growth of the S. pombe RE007 Vpr strain; S. pombe RE007 Vpr strain, BacTiter-Glo ATP luminescence, 24 h; control for the full effect not named in the record; Potency, µM (series often up to 92.2 µM), for inactives: at the highest dose activity change, negative = less growth; AID 651644; actives 0.21% (n = 360,000); active = well fitted falling curve with a large enough effect; inconclusive = small, poorly fitted or top-dose-only effect; inactive = no such curve, though single readings can be large or run the other way;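 also: % is scaled to controls: 0 for no effect and ±100 for the full control effect; nearly all actives have a fitted effect of over 50% in size; the assay follows cell death caused by Vpr and the record does not say whether a fall means rescue or toxicity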
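Fission yeast RE007 carrying one integrated HIV-1 vpr copy, seeded at OD 0.01 in PMG+AL medium with 23 nL pinned compound. Grown 24 h at 30 degrees; viability read by BacTiter-Glo luminescence after 5 min.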
An asterisk follows results filed as active; [ ] = remark or other dose. Unless noted, calls follow the shape of the dose curve; as a rule, active means well fitted rising curve with a large enough effect; inconclusive means small, poorly fitted or top-dose-only effect; inactive means no such curve, though single readings can be large or run the other way. Potency is read from the fitted curve at half-maximal effect.

What do the screens show for `COc1ccc(NC(=O)CCCCC(=O)Nc2ccc(OC)cc2)cc1`?
2A StopGo: -16%; MARV entry inh: 22%; SARS PLpro yeast: -1%; NS1 function inh: 7%; Lassa entry inh: 12%; RE007 growth inh: 2%

What do the screens show for `CN(Cc1ccccc1)c1oc(COc2ccccc2F)nc1C#N`?
2A StopGo: -11%; SARS PLpro yeast: 3%; NS1 function inh: -45%; Cruzain Triton: 2.4%; Cruzain inh noDet: 0%; RE007 growth inh: 13%

Results for C=CCCC1(C(C)C)C(=O)NC(=S)NC1=O ?
2A StopGo: -22%; MARV entry inh: 0%; Lassa entry inh: 23%[46.1 µM]; RE007 growth inh: 10%

What do the screens show for `O=C(CC(Cc1ccccc1)C(=O)O)Nc1cccc(C(F)(F)F)c1` (stereo not given)?
2A StopGo: 6%; MARV entry inh: 4%; SARS PLpro yeast: 1%; NS1 function inh: -9%; Lassa entry inh: 11%; RE007 growth inh: 8%

Results for Cc1ccccc1CN1CCc2nc(Nc3ccc4c(c3)OCCO4)ncc2C1 ?
2A StopGo: inconclusive; Lassa entry inh: inconclusive; Cruzain Triton: -18%; Cruzain inh noDet: inconclusive

How did O=C(CSc1nc(-c2ccccc2)nn1C(=O)c1ccccc1)Nc1cccc([N+](=O)[O-])c1 do in these assays?
2A StopGo: inconclusive; MARV entry inh: -2%; SARS PLpro yeast: -9%; NS1 function inh: 3%; Lassa entry inh: inconclusive; Cruzain Triton: -1.4%; Cruzain inh noDet: -26%; RE007 growth inh: 6%

Results for O=C(NCc1nc2ccccc2[nH]1)C1=C[C@H](c2coc3ccccc3c2=O)C[C@H](OCc2ccc(CO)cc2)O1 ?
2A StopGo: -23%; SARS PLpro yeast: 1%; NS1 function inh: -35%; RE007 growth inh: 1%

Results for CN(Cc1ccccn1)Cc1nc(COc2ccccc2)no1 ?
2A StopGo: 16%; MARV entry inh: inconclusive; SARS PLpro yeast: 1%; NS1 function inh: 3%; Lassa entry inh: 0%[46.1 µM]; RE007 growth inh: 11%

Results for Cc1cc(C(=O)OCC(=O)c2cccs2)ccc1[N+](=O)[O-] ?
2A StopGo: 3%; MARV entry inh: 5%[46.1 µM]; SARS PLpro yeast: -2%; Lassa entry inh: -2%; RE007 growth inh: -20%

How did O=C(C1CCCCC1)N(Cc1ccccc1)c1ccccn1 do in these assays?
2A StopGo: -6%; MARV entry inh: 18%; SARS PLpro yeast: 1%; NS1 function inh: -2%; Lassa entry inh: 21%; Cruzain Triton: 5.8%; Cruzain inh noDet: -19%; RE007 growth inh: 10%

How did Cc1cccc(NC(=O)c2cc(NC(=O)C3CCCCC3C(=O)O)ccc2Cl)n1 (stereo not given) do in these assays?
2A StopGo: -23%; MARV entry inh: -14%; SARS PLpro yeast: 0%; NS1 function inh: -1%; Lassa entry inh: -7%; Cruzain Triton: -3.3%; Cruzain inh noDet: -27%; RE007 growth inh: -8%

How did CC(=O)Nc1cccc(NC(=O)CN2C(=O)CCSc3ccccc32)c1 do in these assays?
2A StopGo: -1%; MARV entry inh: 14%[46.1 µM]; Cruzain Triton: -2.0%; Cruzain inh noDet: -2%

How did COc1ccc(CCNC/C=C/c2ccccc2)cc1 do in these assays?
2A StopGo: 10%; MARV entry inh: inconclusive; Lassa entry inh: inconclusive; RE007 growth inh: 9%

Results for CCCn1cnc2c(=S)nc(N)[nH]c21 ?
2A StopGo: -9%; SARS PLpro yeast: 1%; NS1 function inh: 4%; RE007 growth inh: 35%

Results for CCc1ccccc1NC(=O)c1cc2ncc(Br)cn2n1 ?
2A StopGo: 50%[activator]; MARV entry inh: 2%; SARS PLpro yeast: -2%; NS1 function inh: -8%; Lassa entry inh: 20%; Cruzain Triton: 6.6%; Cruzain inh noDet: -6%; RE007 growth inh: 6%

What do the screens show for `CCOC(=O)C(C(C)=O)C(c1ccc(OC)cc1)C(C(C)=O)C(=O)OCC` (stereo not given)?
2A StopGo: -10%; MARV entry inh: -5%; SARS PLpro yeast: -10%; NS1 function inh: 2%; Lassa entry inh: 17%; Cruzain Triton: 3.2%; Cruzain inh noDet: 7%; RE007 growth inh: -6%

How did COc1ccccc1NNC(=O)C(O)(c1ccccc1OC)c1ccccc1OC do in these assays?
2A StopGo: -20%; MARV entry inh: -6%; SARS PLpro yeast: -7%; NS1 function inh: inconclusive; Lassa entry inh: 3%; Cruzain Triton: 0.8%; Cruzain inh noDet: 4%; RE007 growth inh: 5%

What do the screens show for `CCn1cc(C(=O)NCCCN2CCCCCC2)c(=O)c2cc(S(=O)(=O)N3CCc4ccccc4C3)ccc21`?
2A StopGo: -8%; MARV entry inh: inconclusive; SARS PLpro yeast: 0%; Lassa entry inh: inconclusive; RE007 growth inh: -11%

Results for CC1CCCC(NC(=O)COC(=O)c2cccc(NS(=O)(=O)/C=C/c3ccccc3)c2)C1C (stereo not given) ?
2A StopGo: 51%[activator]; MARV entry inh: inconclusive; SARS PLpro yeast: -14%; NS1 function inh: 8%; Lassa entry inh: 2%; Cruzain Triton: -5.1%; Cruzain inh noDet: -19%; RE007 growth inh: 14%

How did CC1C(=O)C(C)C(c2cccc(Br)c2)NC1c1cccc(Br)c1 (stereo not given) do in these assays?
2A StopGo: inconclusive; SARS PLpro yeast: -7%; NS1 function inh: -74%; RE007 growth inh: 20%

What do the screens show for `CN(C)S(=O)(=O)n1cc(/C=C(\NC(=O)c2ccccc2)C(=O)N2CCCC2)c2ccccc21`?
2A StopGo: -7%; SARS PLpro yeast: 7%; NS1 function inh: 16%; RE007 growth inh: 8%

How did CN(C)C(CNC(=S)Nc1cccc(Cl)c1)c1cccnc1 (stereo not given) do in these assays?
2A StopGo: 11%; MARV entry inh: 10%[46.1 µM]; SARS PLpro yeast: 6%; Lassa entry inh: 18%; RE007 growth inh: -2%

Results for O=C(NCC1CCCO1)c1ccc(COc2ccc(Cl)cc2)cc1 (stereo not given) ?
2A StopGo: inconclusive; MARV entry inh: -21%[46.1 µM]; SARS PLpro yeast: -2%; Lassa entry inh: inconclusive; RE007 growth inh: 4%

How did O=C(NCCCN=C1NS(=O)(=O)c2ccccc21)c1ccc(Cl)cc1 do in these assays?
2A StopGo: -6%; MARV entry inh: -18%; SARS PLpro yeast: 0%; NS1 function inh: 7%; Lassa entry inh: 7%; RE007 growth inh: 5%

Results for COc1ccc(CCNC(=O)CC2SC(N)=NC2=O)cc1OC (stereo not given) ?
2A StopGo: 0%; MARV entry inh: 7%[46.1 µM]; SARS PLpro yeast: -4%; NS1 function inh: 1%; Lassa entry inh: -4%; RE007 growth inh: 3%

How did O=C(CNC(=O)c1cccs1)Nc1ccc2c(c1)OCCO2 do in these assays?
2A StopGo: -23%; MARV entry inh: inconclusive; SARS PLpro yeast: -1%; Lassa entry inh: inconclusive; RE007 growth inh: -1%

Results for COc1ccc(NC(=O)CN(C)C(=O)Cc2coc3cc(C)c(C)cc23)cc1 ?
2A StopGo: -21%; MARV entry inh: 6%; SARS PLpro yeast: -5%; Lassa entry inh: -34%; RE007 growth inh: 4%

Results for Clc1ccccc1CSc1ncccn1 ?
MARV entry inh: -2%; SARS PLpro yeast: -1%; NS1 function inh: -2%; Lassa entry inh: 12%; Cruzain Triton: -1.1%; Cruzain inh noDet: 2%; RE007 growth inh: -17%

Results for CCOC(=O)C1CCN(C(=O)CCCOc2ccccc2)CC1 ?
MARV entry inh: -18%; SARS PLpro yeast: -5%; NS1 function inh: 4%; Lassa entry inh: -5%; Cruzain Triton: 5.7%; Cruzain inh noDet: 11%; RE007 growth inh: -2%

What do the screens show for `COc1ccc(CNc2oc(-c3cccc4ccccc34)nc2C#N)cc1`?
2A StopGo: 5%; MARV entry inh: 1%; SARS PLpro yeast: 19%; NS1 function inh: -58%; Lassa entry inh: -14%; Cruzain Triton: -2.5%; Cruzain inh noDet: -7%; RE007 growth inh: 10%

What do the screens show for `CCN(CC(=O)Nc1ccccc1OC)C(=O)c1cc(-c2ccccc2)nn1-c1ccccc1`?
2A StopGo: 0%; MARV entry inh: inconclusive; SARS PLpro yeast: 0%; Lassa entry inh: -20%; RE007 growth inh: 14%

How did O=C(Nc1ccccc1C(=O)Nc1ccccc1)c1ccccc1F do in these assays?
2A StopGo: 3%; SARS PLpro yeast: 0%; NS1 function inh: -1%; RE007 growth inh: 8%

What do the screens show for `S=C1NC[C@H](c2ccccc2)N1CCCCC1CCCCC1`?
2A StopGo: 27%; SARS PLpro yeast: 9%; NS1 function inh: 9%; RE007 growth inh: 5%

How did Cc1ccc(NC(=O)N2CCCCCC2)cc1 do in these assays?
2A StopGo: 38%[activator]; MARV entry inh: 12%[46.1 µM]; SARS PLpro yeast: -3%; NS1 function inh: 5%; Lassa entry inh: 12%[46.1 µM]; RE007 growth inh: 1%

What do the screens show for `O=C(/C=C/Nc1cccc(C(F)(F)F)c1)c1ccc(Oc2ncccn2)cc1`?
2A StopGo: -18%; MARV entry inh: -28%; SARS PLpro yeast: -26%; NS1 function inh: 0%; Lassa entry inh: -14%; Cruzain Triton: -14%; Cruzain inh noDet: inconclusive; RE007 growth inh: -29%

Results for CCN1CCN(C(=O)c2ccc(C)c(S(=O)(=O)Nc3cccc(C)c3)c2)CC1 ?
2A StopGo: 31%[activator]; SARS PLpro yeast: 2%; NS1 function inh: 2%; RE007 growth inh: -12%

How did COc1cc(C2NC(=O)NC(c3ccccc3)=C2C(C)=O)ccc1OCC#N (stereo not given) do in these assays?
2A StopGo: -20%; MARV entry inh: inconclusive; SARS PLpro yeast: 1%; NS1 function inh: 6%; Lassa entry inh: 1%; Cruzain Triton: 1.1%; Cruzain inh noDet: -14%; RE007 growth inh: 18%
